Vaccinia inh – blocks a specific stage of Vaccinia orthopoxvirus infection, primary screen, cell-based, single point; 89,000 tested, 0.01% active; AID 1053133, 2014; Vaccinia-infected cells, mCherry/Venus stage reporter fluorescence; stronger effect = lower value; some inactives read as strong as hits; activity change (mCherry), % (concentration not given with the values);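 active means mCherry past -33% and 40 or more points under the early reporter, replicates agreeing; inconclusive means past -33% without that gap or agreement; tested in A549 cells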;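 further: scaled between vehicle wells and reference inhibitor wells; 23 nL library stock went into each well; one replicate is shown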
Vaccinia inh Venus – further read-out of Vaccinia inh, marked with its call; activity change (Venus), %; measured here: Venus reporter, other viral stage;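 negative = less Venus signal; first of two replicates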
* hit, by the source's call; ? = inconclusive; · = not tested or not shown.

SMILES	Vaccinia inh	Vaccinia inh Venus
COc1cccc(CN2CC3(C2)CN(C(=O)C2CC2)[C@@H](CO)c2[nH]c4cc(OC)ccc4c23)c1	-14.6	-12.9
C[C@@H]1CN([C@@H](C)CO)C(=O)Cc2cc(NS(C)(=O)=O)ccc2O[C@@H]1CN(C)S(=O)(=O)c1ccc(F)cc1	-1.5	2.6
CN1C(=O)c2cc(NC(=O)C3CCCCC3)ccc2OC[C@@H]2O[C@H](CC(=O)NCc3ccccc3F)CC[C@H]21	-4.3	3.0
C[C@H](CO)N1C[C@H](C)[C@H](CN(C)S(C)(=O)=O)Oc2ncc(-c3cccnc3)cc2C1=O	20.1	12.0
C[C@@H]1CN([C@@H](C)CO)C(=O)c2cc(C3=CCCC3)cnc2O[C@@H]1CN(C)C(=O)c1ccc2c(c1)OCO2	2.4	-2.0
O=C(Cc1ccccc1)N1CC(=O)N2[C@H](CO)[C@H](c3ccc(C#Cc4ccccc4)cc3)[C@@H]2C1	?	·
C[C@@H]1CCCCO[C@@H](CN(C)C(=O)c2ccccc2)[C@@H](C)CN([C@@H](C)CO)C(=O)c2cc(N(C)C)ccc2O1	3.5	3.6
O=C(CN1CCOCC1)N1CCCCN2[C@H](CO)[C@H](c3ccc(/C=C/c4ccccc4)cc3)[C@H]2C1	-25.6	-18.2
COc1cc(CN2CC3(CCN(S(=O)(=O)c4cccs4)CC3)c3c(n(C)c4cc(OC)ccc34)[C@H]2CO)cc(OC)c1	-16.1	-8.1
COC(=O)C[C@@H]1CC[C@H]2[C@@H](COc3ccc(NS(=O)(=O)c4ccc(C)cc4)cc3C(=O)N2C)O1	-2.5	-7.9
Cc1ccc(S(=O)(=O)N2CC[C@@H]3[C@H]2c2cc(-c4ccccc4F)ccc2N[C@@H]3CO)cc1	-25.7	-16.1
O=C1N(Cc2ccccc2)Cc2ccccc2[C@@H]2OC(c3ccc(OCCCO)cc3)=N[C@]12CCS(=O)(=O)c1ccccc1	-24.0	-18.3
COc1ccc(C(=O)N2C[C@@H]3[C@H](c4ccccc42)[C@@H](CO)N3Cc2ccccc2)cc1	7.4	0.3
C[C@H]1CN([C@@H](C)CO)C(=O)c2cc(NC(=O)c3ccncc3)ccc2O[C@H]1CN(C)Cc1ccc(C(=O)Nc2ccccc2N)cc1	22.2	3.8
C[C@@H]1CN([C@@H](C)CO)S(=O)(=O)c2ccc(-c3cncnc3)cc2O[C@@H]1CN(C)C(=O)CC1CC1	29.6	14.1
CC=Cc1ccc2n(c1=O)C[C@@H]1[C@@H](CO)[C@H](C(=O)OC)[C@H]2N1CC1CCOCC1 (mixture of isomers)	13.0	9.2
COc1ccc2c3c([nH]c2c1)[C@H](CO)N(C(=O)CC1CC1)CC31CCN(C(=O)c2ccccc2)CC1	13.4	1.5
OC[C@H]1[C@H]2c3ccccc3NC[C@H]2N1CC1CCCCC1	-12.5	-4.1
CC(C)NC(=O)N(C)C[C@H]1OCCCC[C@H](C)Oc2ccc(NS(=O)(=O)c3ccccc3)cc2C(=O)N([C@H](C)CO)C[C@@H]1C	16.0	10.5
COCC(=O)N1CC(=O)N2[C@H](CO)[C@@H](c3ccc(C#Cc4cccc(OC)c4)cc3)[C@@H]2C1	-6.1	-24.6
O=C(c1ccccc1F)N1CC(=O)N2[C@H](C1)[C@H](c1ccc(C#Cc3ccccc3)cc1)[C@@H]2CO	?	·
COc1ccc2c3c(n(C)c2c1)[C@@H](CO)N(C(=O)C1CCCC1)CC31CCN(C(=O)Nc2cccc(F)c2)CC1	?	·
C[C@H](CO)N1C[C@H](C)[C@@H](CN(C)S(=O)(=O)c2cccs2)Oc2ccc(NS(=O)(=O)c3ccc(F)cc3)cc2C1=O	13.2	8.9
CC(C)CC#Cc1cnc2c(c1)C(=O)N([C@@H](C)CO)C[C@@H](C)[C@@H](CN(C)S(=O)(=O)c1ccccc1)O2	-14.1	-12.7
CCNC(=O)[C@H]1[C@H](CO)[C@H]2Cn3c(ccc(-c4ccccc4F)c3=O)[C@H]2N1CC	7.5	1.3
O=C(C[C@H]1C=C[C@H](NC(=O)Nc2cc(F)ccc2F)[C@H](CO)O1)NCc1ccncn1	7.4	1.8
CO[C@H]1CN(C)C(=O)c2ccc(NS(=O)(=O)c3c(C)noc3C)cc2OC[C@H](C)NC[C@@H]1C	3.7	-2.2
CO[C@@H]1CC[C@H]2CCOc3c(C#N)cccc3C(=O)N(C)C[C@@H](c3ccccc3)CC(=O)N(C)C[C@H]1O2	-6.2	-14.7
COc1ccc2c3c([nH]c2c1)[C@@H](CO)N(CC1CCOCC1)CC31CN(C(=O)c2ccc(F)cc2)C1	13.4	9.2
C[C@H]1CN([C@@H](C)CO)C(=O)Cc2cc(NS(=O)(=O)c3ccccc3)ccc2O[C@H]1CN(C)Cc1ccc(C(=O)Nc2ccccc2N)cc1	6.1	11.2
Cc1ccc(S(=O)(=O)Nc2ccc3c(c2)C(=O)N(C)[C@@H]2CC[C@H](CC(=O)O)O[C@H]2CO3)cc1	14.2	14.9
Cc1ccc(-c2ccc3c(c2)O[C@@H](CN(C)Cc2ccc(F)cc2)[C@@H](C)CN([C@H](C)CO)S3(=O)=O)cc1	?	·
C[C@H]1CN([C@@H](C)CO)C(=O)c2cc(NC(=O)CCC(F)(F)F)ccc2O[C@H]1CN(C)Cc1ccc2c(c1)OCO2	-3.2	5.3
C[C@@H]1CN([C@@H](C)CO)C(=O)c2cc(C#Cc3ccccn3)cnc2O[C@H]1CN(C)Cc1ccncc1	22.5	23.7
Cc1ccc(S(=O)(=O)N[C@H]2CC[C@H](CC(=O)N3CCC(Cc4ccccc4)CC3)O[C@@H]2CO)cc1	?	·
C[C@@H]1CCCCO[C@H](CN(C)C(=O)Nc2ccc(F)cc2)[C@@H](C)CN([C@@H](C)CO)C(=O)c2cc(NC(=O)Nc3ccccc3)ccc2O1	-15.6	-10.8
CN1[C@@H]2Cn3c(ccc(-c4ccccc4)c3=O)[C@H]1[C@@H](C(=O)NCC1CCCCC1)[C@@H]2CO	-13.0	-12.5
CC=Cc1ccc2n(c1=O)C[C@@H]1[C@@H](CO)[C@H](C(=O)NCc3ccccc3F)N(S(C)(=O)=O)[C@H]21 (mixture of isomers)	20.1	14.0
C[C@@H]1CCCCO[C@H](CN(C)Cc2ccncc2)[C@@H](C)CN([C@@H](C)CO)C(=O)c2cc(NC(=O)NC3CCCCC3)ccc2O1	-16.0	-13.7
COc1ccc(NC(=O)N[C@@H]2CC[C@H](CCNC(=O)Nc3cc(F)ccc3F)O[C@@H]2CO)cc1	1.0	0.8
O=C(c1ccncc1)N1CC(=O)N2[C@H](CO)[C@H](c3ccc(-c4ccccc4)cc3)[C@H]2C1	18.9	17.3
COc1ccccc1CNC(=O)C[C@@H]1C[C@H]2c3cc(NC(=O)C4CCOCC4)ccc3O[C@H]2[C@H](CO)O1	8.1	15.2
CNC[C@@H]1Oc2c(NS(C)(=O)=O)cccc2C(=O)N([C@@H](C)CO)C[C@@H]1C	5.6	11.4
CCO[C@H]1OC(C(=O)N2CCN(Cc3ccc4c(c3)OCO4)CC2)=C[C@@H](c2ccc3c(c2)OCO3)[C@@H]1CCCO	-10.9	1.4
COc1ccc(CN(C)C[C@@H]2Oc3ccc(NS(=O)(=O)c4ccc(F)cc4)cc3CC(=O)N([C@@H](C)CO)C[C@H]2C)cc1	?	·
CN(C)CC(=O)N1[C@@H]2Cn3c(cccc3=O)[C@H]1[C@@H](C(=O)NCc1ccccc1)[C@@H]2CO	20.9	18.4
C[C@@H]1CN([C@@H](C)CO)C(=O)c2cc(C#CC3(O)CCCC3)cnc2O[C@H]1CN(C)C(=O)C1CCOCC1	6.5	-3.6
CCC(=O)N(C)C[C@@H]1Oc2ncc(C#Cc3ccccc3)cc2C(=O)N([C@H](C)CO)C[C@@H]1C	-5.5	-12.2
O=C(c1cnccn1)N1CC(=O)N2[C@H](CO)[C@H](c3ccc(C#CC4CCCC4)cc3)[C@@H]2C1	11.0	4.4
CC(C)[C@H](C)NC(=O)N(C)C[C@H]1OCc2ccccc2-c2ccccc2C(=O)N([C@H](C)CO)C[C@H]1C	13.2	-1.7
Cc1ccc(S(=O)(=O)Nc2ccc3c(c2)C(=O)N([C@@H](C)CO)C[C@H](C)[C@H](CN(C)Cc2ccc(-c4ccccc4)cc2)O3)cc1	-31.1	-16.7
C[C@H]1CN([C@@H](C)CO)S(=O)(=O)c2ccc(C#CC3CC3)cc2O[C@@H]1CN(C)CC1CCOCC1	?	·
C[C@H](CO)N1C[C@H](C)[C@H](CN(C)S(=O)(=O)c2cccs2)Oc2ncc(-c3cccc(C(F)(F)F)c3)cc2C1=O	?	·
O=C(Nc1ccccc1)N[C@@H]1CC[C@@H](CCNS(=O)(=O)c2cccc(F)c2)O[C@@H]1CO	0.4	-3.0
CO[C@H]1CN(C)C(=O)c2cc(NC(=O)C3CCC3)ccc2OC[C@@H](C)N(Cc2cccnc2)C[C@@H]1C	1.2	1.0
C[C@@H]1CN([C@@H](C)CO)C(=O)Cc2cc(NC(=O)Cc3cn(C)c4ccccc34)ccc2O[C@H]1CN(C)CC1CCCCC1	?	·
CC(=O)N(C)C[C@H]1Oc2ncc(-c3ccc(C(=O)N(C)C)cc3)cc2C(=O)N([C@H](C)CO)C[C@@H]1C	4.5	9.9
CCCNC(=O)N1C[C@@H](C)[C@H](OC)CN(C)C(=O)c2ccc(NC(=O)C3CCC3)cc2OC[C@H]1C	16.5	9.3
C[C@@H]1CN([C@H](C)CO)S(=O)(=O)c2ccc(C#CC(C)(C)O)cc2O[C@H]1CN(C)C(=O)CN(C)C	34.9	12.7
COc1ccc(CN(C)C[C@H]2Oc3ccc(NC(=O)Cc4cn(C)c5ccccc45)cc3CC(=O)N([C@@H](C)CO)C[C@H]2C)cc1	-27.0	-23.1

Compound profiles, from the list above. Screens in order: Vaccinia inh	Vaccinia inh Venus
CC(C)CC#Cc1cnc2c(c1)C(=O)N([C@@H](C)CO)C[C@@H](C)[C@@H](CN(C)S(=O)(=O)c1ccccc1)O2 reads -14.1	-12.7
C[C@@H]1CN([C@H](C)CO)S(=O)(=O)c2ccc(C#CC(C)(C)O)cc2O[C@H]1CN(C)C(=O)CN(C)C reads 34.9	12.7

Part of the list above, as comma-separated lines:
compound,Vaccinia inh,Vaccinia inh Venus
C[C@H]1CN([C@@H](C)CO)C(=O)Cc2cc(NS(=O)(=O)c3ccccc3)ccc2O[C@H]1CN(C)Cc1ccc(C(=O)Nc2ccccc2N)cc1,6.1,11.2
Cc1ccc(S(=O)(=O)Nc2ccc3c(c2)C(=O)N(C)[C@@H]2CC[C@H](CC(=O)O)O[C@H]2CO3)cc1,14.2,14.9
Cc1ccc(-c2ccc3c(c2)O[C@@H](CN(C)Cc2ccc(F)cc2)[C@@H](C)CN([C@H](C)CO)S3(=O)=O)cc1,?,·
C[C@H]1CN([C@@H](C)CO)C(=O)c2cc(NC(=O)CCC(F)(F)F)ccc2O[C@H]1CN(C)Cc1ccc2c(c1)OCO2,-3.2,5.3
C[C@@H]1CN([C@@H](C)CO)C(=O)c2cc(C#Cc3ccccn3)cnc2O[C@H]1CN(C)Cc1ccncc1,22.5,23.7

More records follow.
SMILES	Vaccinia inh	Vaccinia inh Venus
C[C@H]1CN([C@@H](C)CO)C(=O)Cc2cc(NC(=O)Cn3cnnn3)ccc2O[C@@H]1CN(C)C	11.2	10.8
CC(C)CC#Cc1cnc2c(c1)C(=O)N([C@@H](C)CO)C[C@@H](C)[C@H](CN(C)Cc1ccccc1)O2	?	·
CCCNC(=O)N1C[C@@H](O)COC[C@H]2O[C@@H](CC(=O)NCc3ccncn3)CC[C@@H]21	11.0	8.6
C[C@@H]1CN([C@@H](C)CO)C(=O)c2cc(NC(=O)C3CC3)ccc2O[C@@H]1CN(C)S(=O)(=O)c1ccccc1	7.1	-1.9
COc1ccc(NC(=O)N(C)C[C@H]2OCCCC[C@H](C)Oc3ccc(NC(=O)C4CCCCC4)cc3C(=O)N([C@H](C)CO)C[C@@H]2C)cc1	-26.9	-14.0
O=C(NCC[C@H]1CC[C@@H](NC(=O)C2CCCC2)[C@H](CO)O1)c1cc(Cl)cc(Cl)c1	-8.8	-2.0
C[C@H](CO)N1C[C@H](C)[C@H](CN(C)C)Oc2ccc(NS(=O)(=O)c3ccc(Cl)cc3)cc2CC1=O	17.1	8.6
Cc1ccc(S(=O)(=O)NC[C@@H]2CC[C@@H]3[C@@H](CN3Cc3ccccc3C(=O)O)O2)cc1	12.8	15.2
C[C@H]1CN([C@@H](C)CO)C(=O)c2cc(Br)cnc2O[C@H]1CN(C)C(=O)C1CC1	21.3	17.9
C[C@@H]1CN([C@@H](C)CO)C(=O)c2cc(NC(=O)Nc3ccc(F)cc3)ccc2O[C@H]1CN(C)C(=O)Nc1ccccc1	17.4	11.1
C[C@H]1CN([C@@H](C)CO)C(=O)c2cc(-c3ccncc3)cnc2O[C@H]1CN(C)C(=O)c1ccc(F)cc1	17.1	8.6
C[C@@H]1CN([C@H](C)CO)C(=O)c2cccc(NC(=O)C3CCCCC3)c2O[C@H]1CN(C)C(=O)NC1CCCCC1	8.7	6.7
C[C@H](NC(=O)C[C@@H]1C[C@H]2c3cc(NS(=O)(=O)c4ccc(F)cc4)ccc3O[C@H]2[C@@H](CO)O1)c1ccccc1	3.4	5.5
COc1ccc(NC(=O)N2CCCCN3[C@@H](CO)[C@H](c4ccc(C5=CCCC5)cc4)[C@@H]3C2)cc1	-31.3	-37.9
CO[C@H]1CN(C)C(=O)c2ccc(NS(=O)(=O)c3ccc(C)cc3)cc2OC[C@@H](C)N(Cc2nccs2)C[C@H]1C	-12.6	-12.9
COCC(=O)Nc1ccc2c(c1)[C@@H]1C[C@H](CC(=O)NCc3ccccc3)O[C@@H](CO)[C@@H]1O2	10.1	8.7
C/C=C/c1cnc2c(c1)C(=O)N([C@H](C)CO)C[C@H](C)[C@@H](CN(C)S(=O)(=O)c1ccccc1)O2	0.8	-7.9
C[C@@H]1CN([C@H](C)CO)C(=O)c2cc(C3=CCCCC3)cnc2O[C@H]1CN(C)C(=O)Nc1ccc(F)cc1	-10.4	-12.9
C[C@H]1CN([C@@H](C)CO)S(=O)(=O)c2ccc(C3=CCCC3)cc2O[C@@H]1CN(C)Cc1cccnc1	6.0	10.4

Source: PubChem BioAssay (Broad Institute)

These rows are one share of the data, so the mix of outcomes need not match the whole.
